Rango complex inh – qHTS Assay for Inhibitors of Rango (Ran-regulated importin-beta cargo) - Importin beta complex formation; Importin subunit beta-1 (Homo sapiens), Q14974; Rango CFP/YFP FRET sensor + importin beta, 45 min; Potency, µM (doses to about 92.2 µM), for the others: at the top dose inhibition of complex formation; actives 0.031% (n = 340,000); AID 540263, 2011; active = rising FRET ratio curve, often small or poorly fitted; inconclusive = mostly compound fluorescence or quenching in the first reads; inactive = flat curves in all reads;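 further: potency means the concentration at half of the fitted maximal effect; 0% = DMSO wells and 100% = buffer wells lacking importin beta; nearly all actives have a fitted effect of over 15% in size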
Target sequence (Q14974 whole entry, looked up): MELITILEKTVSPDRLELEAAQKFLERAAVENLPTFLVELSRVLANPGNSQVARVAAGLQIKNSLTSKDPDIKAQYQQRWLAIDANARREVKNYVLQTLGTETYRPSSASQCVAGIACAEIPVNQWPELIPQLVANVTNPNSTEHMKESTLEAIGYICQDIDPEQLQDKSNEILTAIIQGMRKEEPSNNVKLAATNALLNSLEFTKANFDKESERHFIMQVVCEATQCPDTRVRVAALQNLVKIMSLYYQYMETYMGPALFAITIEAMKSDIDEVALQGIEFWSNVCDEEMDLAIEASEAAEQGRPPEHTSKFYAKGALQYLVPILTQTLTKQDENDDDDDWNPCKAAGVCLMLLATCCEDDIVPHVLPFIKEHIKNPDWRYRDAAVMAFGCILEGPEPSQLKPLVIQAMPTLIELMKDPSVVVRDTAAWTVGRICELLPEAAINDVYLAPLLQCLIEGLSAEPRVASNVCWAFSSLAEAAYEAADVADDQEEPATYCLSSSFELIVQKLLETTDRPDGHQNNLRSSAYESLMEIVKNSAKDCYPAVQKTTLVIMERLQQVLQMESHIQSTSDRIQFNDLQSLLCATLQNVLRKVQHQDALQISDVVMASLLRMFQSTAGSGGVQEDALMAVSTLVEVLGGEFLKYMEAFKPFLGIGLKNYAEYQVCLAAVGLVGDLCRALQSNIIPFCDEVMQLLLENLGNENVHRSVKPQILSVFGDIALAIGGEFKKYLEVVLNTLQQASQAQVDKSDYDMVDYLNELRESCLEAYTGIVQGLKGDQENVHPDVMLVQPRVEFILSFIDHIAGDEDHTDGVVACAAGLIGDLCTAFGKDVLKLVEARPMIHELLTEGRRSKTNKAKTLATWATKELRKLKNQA
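Inhibition scored from the CFP 486 nm/YFP 530 nm FRET ratio 45 min after adding 0.125 microM importin beta to 50 nM Rango biosensor preincubated 5 min with compound (room temperature, PBS with DTT, Tween-20, BSA). No-importin wells as positive control.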
GLA inh pH 4.5 – qHTS Assay for Inhibitors of Human alpha-Galactosidase at pH 4.5; Alpha-galactosidase A (Homo sapiens), P06280; purified enzyme, 4-MU-alpha-Gal fluorescence, pH 4.5; activity change, negative = inhibition, % at 105 µM; 230,000 tested, under 10 active; AID 1467, 2008; inconclusive = small, poorly fitted or top-dose-only inhibition, or a rising curve; inactive = flat fitted curve, though single readings scatter; no compound was filed as active;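 further: 0% = full activity with enzyme and -100% = basal without enzyme; dose as in the result columns while the protocol names 77 µM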
miR-21 FLuc – qHTS Assay for Modulators of miRNAs and/orActivators of miR-21. HeLa miR-21 FLuc reporter, luciferase, 48 h. Potency, µM (series often up to 38.3 µM), for inactives: top-dose reporter change, positive = more light. 340,000 tested, under 10 active. AID 2288, 2010; active = well fitted rising curve with a large enough effect; inconclusive = small, poorly fitted or top-dose-only effect; inactive = no such curve, though single readings can be large or run the other way;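 further: % of control where 0% means no effect; miR-21 action dims this reporter so a rising signal means less miR-21 action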
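Luminescence from a firefly luciferase reporter carrying a miR-21 binding site downstream, stably expressed under a CMV promoter in HeLa cells that make miR-21 endogenously, reports miRNA modulation after 48 h compound exposure up to approximately 40uM final.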
Rango dissoc inh – qHTS Assay for Inhibitors of RanGTP induced Rango (Ran-regulated importin-beta cargo) - Importin beta complex dissociation; Snurportin-1 (Homo sapiens) + GTP-binding nuclear protein Ran (Homo sapiens) + Importin …; Biochemical FRET Rango-importin beta, RanGTP-induced dissociation; Potency, µM (highest dose often 46.1 µM), for inactives: at the highest dose activity change, negative = inhibition; actives 0.071% (n = 340,000); AID 540253, 2011; active means falling FRET ratio curve, often poorly fitted, with flat reads before Ran was added; inconclusive means other falling curves, or compound fluorescence or quenching; inactive means flat or rising ratio curve;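 further: potency means the concentration at half of the fitted maximal effect; % of control where 0% means no effect; nearly all actives have a fitted effect of over 45% in size; -100% = wells without RanGTP and RCC1; the record marks most hits as doubtful in a second field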
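Compounds preincubate 5 min with complex of recombinant Rango and importin beta in PBS with 1 mM DTT. Ran (0.6 uM) loaded with 2 mM GTP plus 0.2 uM RCC1 starts dissociation; FRET is recorded 45 min later.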
* marks the source's active call; other numbers are inactive results; u = inconclusive; x = no result given; & = joins results of further samples. Only part of the results is shown (hit frequency here may not be typical).

No.	Rango complex inh	Rango dissoc inh	GLA inh pH 4.5	miR-21 FLuc	compound
1	8.1%	2%	-6	-6%	CC(C)(C)c1ccc(CS(=O)CC(O)CO)cc1 (centres undefined)
2	0.1%	5%	x	x	CC(OC(=O)c1cc(S(=O)(=O)N2CCOCC2)ccc1F)C(=O)NC1CCCC1 (centres undefined)
3	-0.8%	3%	x	x	Cc1ccsc1C(=O)OCC(=O)Nc1ccc(Cl)cn1
4	u	-25%	-14	-17%	COc1ccc(N(C)C(=S)Nc2ccc3nc(C)c(C)nc3c2)cc1
5	-1.9%	10%	-4	-12%	Brc1cnc(N2CCCCC2)nc1N1CCOCC1
6	1.3%	-19%	x	x	CCN(CC)S(=O)(=O)c1ccc(N2CCOCC2)c(NC(=O)CN2C(=O)NC3(CCCC3)C2=O)c1
7	-1.2%	0%	0	7%	CC(C)C(C(=O)Nc1nccs1)c1ccccc1 (centres undefined)
8	-3.2%	8%	x	x	C=CCC1(C(=O)N(C)Cc2ccccc2)CCN(C(=O)OC(C)(C)C)CC1
9	0.3%	7%	x	x	CCCCN(C(=O)CSc1ncn[nH]1)c1c(N)n(Cc2ccccc2)c(=O)[nH]c1=O
10	0.6%	11%	x	-5%	O=C(NC(=S)NCc1ccccc1)c1cccs1
11	-0.1%	-8%	x	-11%	COc1ccc(-c2noc(CN(C)C(=O)c3ccoc3C)n2)cc1OC
12	-0.2%	7%	-1	14%	CC(=O)c1ccc(NC(=S)Nc2ccn(Cc3ccc(Br)cc3)n2)cc1
13	-2.2%	-5%	2	0%	CCCCc1nnc(NC(=O)C(C)Sc2nc(N)cc(=O)[nH]2)s1 (centres undefined)
14	0.0%	3%	-4	-41%	CCn1c(=N)n(CC(=O)c2cccc(OC)c2)c2ccccc21
15	2.2%	-1%	-2	-4%	CC1CCc2cc(F)ccc2N1C(=O)CSc1nnc2c3cc(F)ccc3n(C)c2n1 (centres undefined)
16	-0.4%	-11%	-6	u	CCn1c([N+](=O)[O-])nc2c1c(=O)[nH]c(=O)n2C
17	4.5%	2%	2	-3%	CCC(Sc1ccccn1)C(=O)Nc1cccc([N+](=O)[O-])c1 (centres undefined)
18	-0.3%	12%	-12	-13%	COc1ccc(N2CSC3=C(C#N)C(c4cccs4)CC(=O)N3C2)cc1 (centres undefined)
19	-0.5%	-9%	0	0%	CCN(CC)S(=O)(=O)c1ccc(Cl)c(C(=O)NCC2CCCO2)c1 (centres undefined)
20	3.5%	10%	x	x	CC(=O)c1c(C)[nH]c(C(=O)COC(=O)C2(C)CC2(Cl)Cl)c1C (centres undefined)
21	0.9%	-12%	-2	-32%	CCCCCOc1ccc(CSc2ncn[nH]2)cc1
22	-0.1%	3%	x	-2%	CN(C)c1nc(SCC(=O)Nc2ccc(Cl)c(Cl)c2)nc(N2CCOCC2)n1
23	6.2%	17%	x	-47%	O=C(Nc1ccc(F)cc1)C1COc2ccccc2O1 (centres undefined)
24	u	u	1	-9%	N#Cc1c2c(c(Nc3ccccc3)n3c1nc1ccccc13)CCC2
25	-0.2%	1%	0	-4%	COc1ccc(CSc2nnc(C)n2N)cc1Br
26	1.2%	-11%	-1	0%	Cc1ccc2[nH]c(O)c(N=NC(=O)C(C)n3cnc4ccccc4c3=O)c2c1 (centres undefined)
27	-0.4%	-5%	-5	2%	O=C(NCCCCCc1nc2ccccc2[nH]1)c1ccccc1Cl
28	0.3%	38%	-25	0%	CCn1c(=O)cc(OCC(=O)N2CCN(c3cccc(C(F)(F)F)c3)CC2)c2ccccc21
29	-2.8%	u	x	16%	CC(=O)c1ccc(S(=O)(=O)N2CCCc3ccccc32)cc1
30	-2.2%	-4%	x	x	Cc1ccc2c(COC(=O)C3CC(=O)N(c4ccc5c(c4)OCCO5)C3)cc(=O)oc2c1 (centres undefined)

Reformatted: entries from further up
9) CCCCN(C(=O)CSc1ncn[nH]1)c1c(N)n(Cc2ccccc2)c(=O)[nH]c1=O
  Rango complex inh: 0.3% | Rango dissoc inh: 7% | GLA inh pH 4.5: x | miR-21 FLuc: x

10) O=C(NC(=S)NCc1ccccc1)c1cccs1
  Rango complex inh: 0.6% | Rango dissoc inh: 11% | GLA inh pH 4.5: x | miR-21 FLuc: -5%

The main list resumes, repeating the 6 entries before the break.
No.	Rango complex inh	Rango dissoc inh	GLA inh pH 4.5	miR-21 FLuc	compound
25	-0.2%	1%	0	-4%	COc1ccc(CSc2nnc(C)n2N)cc1Br
26	1.2%	-11%	-1	0%	Cc1ccc2[nH]c(O)c(N=NC(=O)C(C)n3cnc4ccccc4c3=O)c2c1 (centres undefined)
27	-0.4%	-5%	-5	2%	O=C(NCCCCCc1nc2ccccc2[nH]1)c1ccccc1Cl
28	0.3%	38%	-25	0%	CCn1c(=O)cc(OCC(=O)N2CCN(c3cccc(C(F)(F)F)c3)CC2)c2ccccc21
29	-2.8%	u	x	16%	CC(=O)c1ccc(S(=O)(=O)N2CCCc3ccccc32)cc1
30	-2.2%	-4%	x	x	Cc1ccc2c(COC(=O)C3CC(=O)N(c4ccc5c(c4)OCCO5)C3)cc(=O)oc2c1 (centres undefined)
31	-2.2%	13%	4	-32%	Nc1nnc(-c2ccc(Cl)c(Cl)c2)s1
32	-3.8%	1%	x	-2%	COCCN(C(=O)CSc1nnc(-c2cccc(F)c2)n1N)c1c(N)n(CC(C)C)c(=O)[nH]c1=O
33	u	-10%	6	11%	O=C(CCCc1nc(-c2ccccc2Cl)no1)NCc1cccnc1
34	0.1%	-7%	1	-2%	Cc1cc(C)c(S(=O)(=O)Nc2ccc(C(N)=O)cc2)c(C)c1
35	-0.1%	9%	x	x	Cc1csc(SCC(=O)Nc2cccc(C)c2C)n1
36	-1.4%	1%	x	x	COc1ccc(S(=O)(=O)N2CCCCCC2)cc1NC(=O)Cc1ccc(OC)c(OC)c1
37	0.9%	-7%	7	-2%	O=C(O)c1csc(-n2nc(-c3ccccc3)cc2C(F)(F)F)n1
38	0.6%	-2%	1	1%	CCCCN(CC)Cc1ccc(CNC(=O)Nc2ccc(OC)cc2OC)o1
39	7.1%	-3%	-14	0%	Cc1ccc(-c2nc3ncccc3o2)cc1NC(=O)CC(C)C
40	-0.5%	-1%	1	1%	CCCCCOC(=O)c1ccccc1C(=O)O
41	-2.9%	10%	x	3%	CSc1ccc(C(=O)N2CCC(CCC(=O)NC3CC3)CC2)cc1
42	3.7%	0%	-14	-5%	COc1ccc(C)cc1NC(=O)C(OC(=O)CNC(=O)c1cc(C)cc(C)c1)c1ccccc1 (centres undefined)
43	-1.1%	30%	-1	3%	CC12CCC(C(N)=O)(C1Br)C2(C)C (centres undefined)
44	0.2%	-7%	x	-5%	O=C(Nc1ccc(-n2cc(Br)cn2)cc1)c1ccncc1
45	0.7%	-8%	x	x	O=C(Nc1ccc(C(=O)N2CCCC2)cc1)C1CCC1
46	3.5%	43%	3	-2%	CCC(=O)Nc1ccc(N2CCN(C(=O)c3cccs3)CC2)cc1
47	-0.2%	-3%	x	6%	Cc1ccc(N2CC(C(=O)N3CCC(C(=O)NCCCOC(C)C)CC3)CC2=O)cc1 (centres undefined)
48	-5.5%	-15%	7	-22%	COc1ccc(CC(=O)N2CCN(c3ccccn3)CC2)cc1
49	-0.2%	1%	3	-16%	O=C(NC1CCCCC1)c1cccs1
50	-0.5%	1%	-11	18%	COc1ccc(/C=C/C(=O)Nc2ccccc2C)cc1S(=O)(=O)N1CCOCC1
51	0.6%	22%	u	5%	CC1CN(S(=O)(=O)c2cccc(C(=O)Nc3ccc4c(c3)CCC4)c2)CC(C)O1 (centres undefined)
52	5.6%	24%	7	-4%	COc1ccc(-c2nc(CNS(=O)(=O)c3ccc(OC)c(OC)c3)cs2)cc1
53	1.5%	37%	-4	-34%	O=C(NCCc1ccc(F)cc1)C1CCCCC1
54	0.1%	-13%	6	-23%	COC(=O)c1ccccc1NC(=O)COc1ccccc1
55	-7.8%	4%	x	-8%	Cc1c(C(=O)Nc2c(C)n(C)n(-c3ccccc3)c2=O)oc2c(Cl)cccc12
56	1.9%	4%	3	0%	CCCN(CCO)Cc1ccc2ccccc2c1
57	2.4%	33%	x	0%	NCC(O)CN1CCN(Cc2ccccc2)CC1 (centres undefined)
58	-0.4%	3%	10	0%	CCCC(=O)C1C(=O)CC(C)(C)C(c2cc(C)no2)C1=O (centres undefined)
59	u	-2%	x	12%	N#CCc1ccc(NC(=O)c2cc(S(=O)(=O)N3CCOCC3)ccc2Cl)cc1
60	2.1%	-20%	x	x	Cc1cccc(NC(=O)C(C)N2C(=O)c3ccccc3S2(=O)=O)n1 (centres undefined)
61	0.7%	-2%	-10	x	CCOC(=O)C1(CC)Oc2ccccc2C(c2ccc(OC)cc2)=C1C(=O)OC (centres undefined)
62	-1.3%	27%	-1	-2%	O=C(N/N=C1\CCc2ccccc21)c1ccccc1O
63	4.8%	-3%	7	3%	O=C(COC(=O)Cn1cnc2ccccc2c1=O)Nc1cc(Cl)ccc1[N+](=O)[O-]
64	4.7%	9%	x	x	Cn1c(=O)c2[nH]c(SCCN3CCCCC3)nc2n(C)c1=S
65	0.8%	0%	4	-9%	CC(C)c1ccc(/C=C/C(=O)NCCC2=CCCCC2)cc1
66	5.2%	-7%	x	-2%	COc1ccc(CN2CCNC(=O)C2CC(=O)N(C)Cc2nc(C)cs2)c(OC)c1 (centres undefined)
67	-0.5%	29%	x	-1%	CCOc1ccc(N(C(C)C(=O)N2CCOCC2)S(C)(=O)=O)cc1 (centres undefined)
68	0.7%	-12%	x	u	O=C1Nc2ccccc2/C1=C\C(=O)c1ccccc1
69	3.7%	11%	-11	-7%	CC1(C)CC(NC(=O)CCc2ccccc2)CC(C)(C)N1
70	1.2%	15%	-2	0%	COc1cc2nc(-c3ccc(Br)o3)oc(=O)c2cc1OC
71	-1.0%	3%	-3	0%	c1cnc(NC2CCCCCC2)nc1
72	4.9%	-10%	x	x	CC1(c2ccccc2)CC(c2ccccc2)=C(C#N)C(=O)N1 (centres undefined)
73	3.5%	-6%	7	-7%	C/C(CC(=O)NC1CCCC1)=N\NC(=O)c1ccc([N+](=O)[O-])c(Cl)c1
74	u	u	-2	-3%	COC(=O)C1C(O)=C(C=Nc2ccc(N)cc2)C(=O)CC1(C)C (centres undefined)
75	3.8%	4%	-1	-4%	COc1ccc(Nc2c(C)cccc2C)cc1
76	-2.7%	-4%	-2	-2%	COc1ccc(C)cc1NC(=O)CSc1nnnn1Cc1ccccc1
77	-2.6%	-13%	x	-7%	N=Nc1c(O)n(CC(=O)Nc2ccccc2)c2ccccc12
78	-1.0%&-4.7%	6%&-1%	2&9	-8%&-7%	Cn1c(=O)n(CC(=O)O)c(=O)c2c1nc1n2CCS1
79	4.0%	-6%	-8	10%	COc1cc2c(cc1OC)C(C)N(C(=O)Cn1ncc3c1-c1cc(C)ccc1OC3)CC2 (centres undefined)
80	-3.3%	-1%	-1	-18%	Cc1ccc2nc(SCCC#N)nc(C)c2c1
81	2.5%	1%	x	x	COc1ccc(CCNC(=O)C2CC(O)CN2S(=O)(=O)c2ccc(Cl)cc2)cc1OC (centres undefined)
82	-3.1%	-18%	-1	-4%	c1ccc(CN2CCN(CCN3CCn4c3nc3ccccc34)CC2)cc1
83	2.3%	-3%	x	-2%	COc1cccc(C(=O)NCC(=O)N2CCC3(CC2)NCCc2[nH]cnc23)c1
84	2.9%	2%	-2	0%	Cc1ccc(SCc2cc(=O)[nH]c(N3CCOCC3)n2)cc1
85	2.5%	-12%	5	4%	O=C(CN1CCN(c2ccccc2)CC1)N1N=CCC1c1ccccc1 (centres undefined)

High-throughput results deposited in PubChem BioAssay by National Center for Advancing Translational Sciences (NCATS).
